Vif TR-FRET: inhibitors of Vif binding to APOBEC3G peptide, primary screen, biochemical, TR-FRET, GST-Vif 1-94, biotin-A3G peptide, dose response retest (AID 1117319) | one-dose inhibition, %; IC50 in µM for titrated hits | TR-FRET GST-Vif / biotin-A3G peptide binding; higher % means a stronger effect; test concentration not given here; strong numbers were not always called active | 260,000 compounds, 0.57% hits;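 active means above the screen mean plus three standard deviations and confirmed in dose response; inconclusive means results disagree or hit not tested in dose response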;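 further: Vif residues 1-94 fused to GST binding biotinylated APOBEC3G peptide 110-148; 0% = full assay without inhibitor and 100% = GST in place of GST-Vif; retest series ran down from 100 µM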
FGF22 binding: binders of recombinant human FGF22 by thermal shift; Q9HCT0; SYPRO orange fluorescence; percent of sucrose octasulfate shift, DMSO zero; calls only at 9.99 µM; 340,000 compounds, 1.5% hits; AID 651658;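 active means melting point raised past a set limit in the mean and every replicate; inconclusive means no clear call; three in four hits are not shown here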
Target sequence (Q9HCT0 whole entry, looked up): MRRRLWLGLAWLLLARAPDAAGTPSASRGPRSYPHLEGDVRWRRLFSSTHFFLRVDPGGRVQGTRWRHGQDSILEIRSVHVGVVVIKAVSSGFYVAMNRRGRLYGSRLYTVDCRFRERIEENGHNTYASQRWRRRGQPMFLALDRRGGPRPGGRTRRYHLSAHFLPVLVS
HNF4A DNA FP: change in binding of human HNF4 alpha to DNA; AID 1224865; P41235; HNF4a-FITC DNA binding, fluorescence polarization, 1 h; 360,000 compounds, 0.3% hits; activity change, % at 10 µM; in the data active means activity change above about 30%, passing the limit was not always enough;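 further: controls were the assay level and a saturating level of protein; the project sought stronger binding though the title names inhibitors; some compounds called inactive have numbers as strong as hits; positive values seem to mean higher polarization but the record does not say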
rRNA inh HTS: inhibits bacterial ribosomal RNA function over humanized ribosomes | 350,000 compounds, 1.6% hits | AID 720706 | E. coli WT GFP vs humanized-ribosome RFP mutants, fluorescence, 24 h; hits give low values; DMSO median 0, no signal -100 | GFP signal change (wild-type ribosome), % (test concentration not listed);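 active means significant combined selectivity score with lowered wild-type GFP, culture density cut under 30%, mutant RFP and density less affected; inactive means any of these conditions unmet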; further: one replicate is shown; some compounds called inactive have numbers as strong as hits
Ecoli growth: inhibitors of Escherichia coli growth; OD600 absorbance (concentration not given with the values); 330,000 compounds, 0.21% hits; OD600, 23 h; hits give low values;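 active means OD600 absorbance below the run mean of sample wells minus 3.6 SD, in any replicate, cut at about 0.56 in these data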;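 further: stock transfer was 300 nL into about 60 µL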
MLL AF4-AF9 inh: blocks AF4 peptide binding to human AF9; P42568; inhibition, % at 10 µM; 350,000 compounds, 0.47% hits; AlphaScreen, biotin-AF4 peptide binding to FLAG-AF9; AID 651704;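 active means every replicate reaching a set inhibition limit, whatever the replicate mean, cut at about 25% in these data; inconclusive means mean inhibition reaches that limit but some replicates miss it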;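 further: 0% = plate neutral control median and 100% = total signal loss; the record names both 10 and 1 µM as test concentration; the first replicate is given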
Target sequence (P42568 whole entry, looked up): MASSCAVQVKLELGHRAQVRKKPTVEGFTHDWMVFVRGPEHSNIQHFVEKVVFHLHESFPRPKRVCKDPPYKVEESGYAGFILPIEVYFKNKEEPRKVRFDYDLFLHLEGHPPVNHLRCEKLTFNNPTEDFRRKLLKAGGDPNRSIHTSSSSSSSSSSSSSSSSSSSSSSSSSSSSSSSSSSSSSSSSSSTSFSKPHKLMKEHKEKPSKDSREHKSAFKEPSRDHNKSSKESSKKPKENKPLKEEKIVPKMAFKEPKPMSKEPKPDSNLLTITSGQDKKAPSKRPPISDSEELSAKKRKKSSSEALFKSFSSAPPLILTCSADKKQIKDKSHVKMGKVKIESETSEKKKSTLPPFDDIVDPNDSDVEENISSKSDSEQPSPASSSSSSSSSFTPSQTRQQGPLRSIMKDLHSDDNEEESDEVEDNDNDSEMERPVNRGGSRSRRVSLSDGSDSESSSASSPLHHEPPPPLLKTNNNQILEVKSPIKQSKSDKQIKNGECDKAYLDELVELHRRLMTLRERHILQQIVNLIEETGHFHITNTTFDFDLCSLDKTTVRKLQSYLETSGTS
ALR inh: human ALR oxidase inhibition via reduced H2O2; inhibition, % (no concentration beside the values); P55789; purified ALR, DTT oxidation, H2O2 HRP-luminol luminescence; 290,000 compounds, 3.8% hits;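 active means mean and each replicate at 75% or more; inconclusive means only one of the two met; inactive means neither met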;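 further: stock transfer was 7.5 nL into about 7.5 µL; 0% = neutral wells and 100% = wells with inactivated enzyme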
Target sequence (P55789 whole entry, looked up): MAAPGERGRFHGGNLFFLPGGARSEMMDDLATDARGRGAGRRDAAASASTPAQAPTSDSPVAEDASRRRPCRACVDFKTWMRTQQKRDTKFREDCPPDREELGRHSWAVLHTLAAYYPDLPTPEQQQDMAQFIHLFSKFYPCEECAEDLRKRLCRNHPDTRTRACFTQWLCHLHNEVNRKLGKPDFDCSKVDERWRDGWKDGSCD
rRNA inh HTS OD600: recorded beside rRNA inh HTS, whose call it bears; OD600 change, %; measured here: OD600 growth;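 optical density of the mix in the first replicate; 0 = DMSO median and -100 = no signal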
rRNA inh HTS RFP: also measured in rRNA inh HTS; calls as there; RFP signal change, %; measured here: RFP humanized mutant strains;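 first replicate; 0 = DMSO median and -100 = no signal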
The depositor's hits bear a star; i = inactive; ? = inconclusive; / = not tested or not shown; & = joins results of further samples. Only part of the results is shown; count on the stated rates, not on these rows.

SMILES | Vif TR-FRET | FGF22 binding | HNF4A DNA FP | rRNA inh HTS | rRNA inh HTS OD600 | rRNA inh HTS RFP | Ecoli growth | MLL AF4-AF9 inh | ALR inh
Cc1cc(C)cc(N(CC(=O)N2CCOCC2)S(=O)(=O)c2ccccc2)c1 | 14% | / | 2.9 | / | / | / | 0.7 | / | 2
COc1ccc(C(=O)NC2CCN(CC(=O)N3CCCCC3)CC2)cc1 | 2% | i | -1.0 | 10 | 5 | -1.6 | 0.71 | -0.9 | -5
COc1ccc(OCC(=O)N/N=C(\C)CC(=O)Nc2cccc([N+](=O)[O-])c2)cc1 | 28% | i | -3.1 | 19 | 19 | -1.3 | / | -1.0 | -1
O=C(Nc1cccc(C(F)(F)F)c1)C1CCCN1S(=O)(=O)c1cccc2cccnc12 (centres undefined) | -2% | i | 3.0 | 12 | 2 | -4.6 | 0.75 | 1.5 | -10
COc1ccc(NC(=O)CN(C)S(=O)(=O)c2ccc3c(c2)CC(C)N3C(C)=O)cc1OC (centres undefined) | / | i | -4.5 | 2 | 7 | -1.4 | 0.69 | 1.4 | -1
CC(=O)c1ccc2cccc3c2c1N=CN3C | 18% | / | -5.8 | / | / | / | 0.57 | / | 13
CCCC#Cc1ccc([C@H]2[C@H]3CN(S(=O)(=O)c4ccccc4C)CCCCN3[C@H]2CO)cc1 | / | i | / | -2 | 7 | -2.1 | / | -2.3 | /
CCCCOc1ccc(C(=O)N/C(=C\c2ccc([N+](=O)[O-])cc2)C(=O)OCc2ccco2)cc1 | / | / | 0.5 | / | / | / | 0.68 | / | -4
CC(C)c1ccc(S(=O)(=O)N2CCN(C(=O)CN3C(=O)c4ccccc4C3=O)CC2)cc1 | -6% | / | 0.2 | 11 | 12 | 4.4 | 0.74 | -0.1 | -1
C[C@@H]1CN([C@@H](C)CO)C(=O)Cc2cc(NC(=O)Nc3ccccc3)ccc2O[C@H]1CN(C)S(=O)(=O)c1ccc(F)cc1 | / | i | / | -4 | -8 | 1.6 | / | 2.8 | /
Cc1cccc(OCC(=O)N2CCN(C(=O)c3ccco3)CC2)c1 | 8% | i | -1.1 | -3 | 0 | -1.8 | 0.72 | -2.0 | -7
CCOC(=O)Cc1csc(N)n1 | 6% | i | 5.3 | 17 | 8 | -12 | 0.7 | 5.1 | -4
CN(Cc1nc(-c2cccnc2)no1)S(=O)(=O)c1ccc(Br)cc1 | 6% | / | -4.9 | / | / | / | 0.71 | / | -3
COc1ccc(C2OC[C@H]3O[C@H](O)[C@H](NC(C)=O)[C@@H](O)[C@@H]3O2)cc1 (some centres undefined) | ? | i | 5.9 | 20 | 22 | 3.4 | / | 2.9 | /
Cc1nc(N2CCOCC2)sc1C=O | -9% | i | -0.7 | 8 | 4 | -1.7 | 0.69 | 0.0 | 1
CC(C)C(NC(=O)OCc1ccccc1)C(=O)NC(Cc1c[nH]c2ccccc12)C(=O)O (centres undefined) | / | i | 0.1 | 10 | 7 | 1.6 | 0.72 | -6.2 | /
CC12CC3(C)CC(C)(C1)CC(C(=O)NCC(=O)O)(C2)C3 | / | i | -1.1 | -1 | 8 | 1.0 | 0.69 | 1.3 | 0
C[C@@H]1CN([C@@H](C)CO)C(=O)c2cc(NS(=O)(=O)c3ccccc3)ccc2O[C@H]1CN(C)Cc1ccc2c(c1)OCO2 | / | i | / | 3 | -4 | -2.2 | / | -2.4 | /
O=C(NCC1CCCO1)c1cccc(Br)c1 (centres undefined) | 30% | i | 0.5 | 9 | 1 | -2.7 | 0.72 | -0.3 | 1
CN(CCC(=O)c1ccccc1)CCC(=O)c1ccccc1 | / | i | 3.2 | 7 | 16 | -0.9 | 0.62 | -1.7 | 70
COc1ccc(-n2c(Cc3cccn3C)nnc2SCC(=O)NCC2CCCO2)cc1 (centres undefined) | 5%&-9% | i | 0.8 | 11 | -3 | -0.2 | 0.73 | -0.7 | 49
Cc1noc(C)c1S(=O)(=O)N(C)C[C@H]1OCCCC[C@@H](C)Oc2ccc(NC(=O)Nc3ccc(F)cc3)cc2C(=O)N([C@H](C)CO)C[C@@H]1C | / | i | / | 2 | -5 | -0.9 | / | -3.5 | /
O=C(CN(Cc1ccccc1)C(=O)CCC(=O)Nc1ccccn1)NCCc1ccccc1 | / | i | -3.2 | 2 | 8 | 1.0 | 0.69 | 0.2 | 4
C=C(C)c1cccc(C(C)(C)NC(=O)NCC2COCCO2)c1 (centres undefined) | 16% | / | -1.8 | / | / | / | 0.67 | / | 2
CC(=O)N1c2ccc(S(=O)(=O)NCC3CCC(C(=O)N(C)Cc4ccccc4)CC3)cc2CC1C (centres undefined) | 0% | i | 3.4 | -21 | -19 | -0.5 | 0.69 | 0.4 | -1
Cc1ccc(NC(=O)NCc2cccnc2)cc1Cl | 1% | i | 4.8 | -13 | -16 | -2.4 | 0.63 | -0.7 | 5
COc1cccc2cc(C(=O)NCCN3CCOCC3)c(=O)oc12 | -5% | i | 2.3 | 3 | 2 | -1.6 | 0.65 | -7.8 | 0
Cc1ccc(-c2nnc(SCC(=O)Nc3nc4c(s3)CCCC4)n2C)cc1 | 8% | / | 0.5 | / | / | / | 0.74 | / | -5
Cc1cc(CN(C)C(=O)c2cc(COc3ccc(C)c(C)c3)on2)on1 | / | i | -0.3 | -2 | -1 | 1.9 | 0.7 | -1.3 | -4
COc1cc(OC)cc(C(=O)NC(=S)Nc2ccc3[nH]c(=O)[nH]c3c2)c1 | / | i | -2.6 | 4 | 14 | 0.4 | 0.68 | 0.9 | /
c1ccc(-c2nnc(CN3CCN(C(c4ccccc4)c4ccccc4)CC3)o2)cc1 | -4% | i | 3.8 | -2 | -28 | -0.2 | 0.66 | -10 | 11
Cc1cccc(OCC(=O)NNC(=O)c2ccccc2OCc2c(C)noc2C)c1 | 0% | i | -1.0 | -7 | -1 | 1.7 | 0.64 | 1.8 | -3
COC(=O)/C=c1/s/c(=C(/C#N)C(=O)NCc2ccccc2)n(-c2ccccc2)c1=O | -3% | / | -0.2 | / | / | / | / | / | -14
CN(CC(=O)NCc1ccco1)CC(=O)Nc1cc(S(C)(=O)=O)ccc1Cl | 2% | i | 1.3 | 5 | 16 | 0.0 | 0.67 | 6.5 | /
C[C@H](O)C#Cc1ccc2c(c1)O[C@@H](CN(C)Cc1ccncc1)[C@@H](C)CN([C@@H](C)CO)S2(=O)=O | / | i | / | -3 | 1 | -1.5 | / | 0.1 | /
COCCn1c(N)c(C#N)c2nc3ccccc3nc21 | ? | / | -1.1 | / | / | / | 0.7 | / | -13
CCCCOC(=O)c1ccc(OC(=O)N2CCOCC2)cc1 | / | i | -1.6 | 6 | 7 | 5.3 | 0.67 | -10.0 | 0
CCc1cc(=O)oc2cc(C)cc(OC(C)C(=O)NCCCn3ccnc3)c12 (centres undefined) | / | i | -1.4 | 10 | 8 | 2.7 | 0.7 | 0.0 | -44
CC(C)NC(=O)N(C)C[C@H]1Oc2ccc(NC(=O)CCN3CCOCC3)cc2CC(=O)N([C@@H](C)CO)C[C@H]1C | / | i | / | 6 | 12 | -0.2 | / | 1.0 | /
OCCC1CN(Cc2cccn2-c2nccs2)CCN1C1CCCCC1 (centres undefined) | -6% | i | 4.2 | 24 | 16 | 1.9 | 0.71 | 1.4 | -5
CCOC(=O)C1C(c2ccc(Cl)cc2)NC(=S)NC1(O)C(F)(F)F (centres undefined) | -3% | i | 2.9 | 9 | 9 | 1.3 | 0.65 | 0.0 | -15
COc1ccc(S(=O)(=O)N2CCN(C(=O)CCCN3C(=O)NC4(CCCC4)C3=O)CC2)cc1 | 7% | i | 3.5 | 13 | 18 | -0.9 | 0.69 | 3.9 | /
O=C(CN1CCCN(Cc2ccc(F)cc2Cl)C1=O)NC1CCCCCCC1 | 4% | / | 5.6 | / | / | / | 0.64 | / | -25
Cc1cccc(OCCNc2cc(N3CCN(CCO)CC3)ccc2[N+](=O)[O-])c1 | / | i | 4.7 | -57 | -78 | -25 | 0.68 | ? | 4
COc1cccc(-c2cnc3c(c2)C(=O)N([C@H](C)CO)C[C@@H](C)[C@@H](CN(C)Cc2ccccc2)O3)c1 | / | i | / | 1 | 2 | -3.3 | / | -0.6 | /
COc1ccc(NC(=O)Nc2ccc3c(c2)C(=O)N([C@H](C)CO)C[C@H](C)[C@H](CN(C)C(=O)Nc2cccc4ccccc24)O3)cc1 | / | i | / | -5 | -1 | 0.6 | / | 2.1 | /
COc1ccccc1CN1[C@@H]2CN(C(=O)c3cccnc3)c3ccccc3[C@@H]2[C@@H]1CO | / | i | / | -2 | -3 | -0.3 | / | -13 | /
Cc1cc(CN(C)C(=O)CC2C(=O)NCCN2Cc2ccc(-c3ccccc3)cc2)on1 (centres undefined) | -1% | i | 0.4 | -3 | -13 | -1.2 | 0.71 | -11 | 1
CC(=O)c1c(C)cc(C)c(CSc2nc(C)cc(=O)[nH]2)c1C | -8% | / | -1.4 | / | / | / | 0.68 | / | 52
C[C@H]1CN([C@@H](C)CO)C(=O)c2c(c3ccccc3n2C)-c2ccccc2CO[C@H]1CN(C)Cc1ccc(F)cc1 | / | i | / | -3 | -6 | 4.0 | / | -0.5 | /
COc1ccccc1C1/C(=C(/O)c2cnn(-c3ccccc3)c2C)C(=O)C(=O)N1CCN(C)C (centres undefined) | / | i | 4.8 | 10 | 3 | -9.8 | 0.69 | ? | /
C[C@H](CO)N1C[C@H](C)[C@@H](CN(C)C)OCCCC[C@H](C)Oc2ccc(NC(=O)Nc3ccc(C(F)(F)F)cc3)cc2C1=O | / | i | / | -53 | -75 | -10 | / | -3.2 | /
CC(=O)NCCc1nc2cc(NC(=O)c3ccccc3)ccc2n1C | 8% | i | -2.7 | 8 | 0 | -1.7 | 0.68 | -0.1 | -2
O=C(OC1CCCCC1=O)c1cc(=O)c2ccccc2o1 (centres undefined) | -1% | / | -1.2 | / | / | / | 0.73 | / | 2
N/C(=N\OC(=O)CCC(=O)O)c1ncc(C(F)(F)F)cc1Cl | 4% | i | 1.7 | 11 | 4 | 2.9 | / | 1.9 | -5
NCCCCNCCCN | 1% | i | 1.5 | / | / | / | / | 4.2 | /

Profiles as entered above:
`C[C@H](CO)N1C[C@H](C)[C@@H](CN(C)C)OCCCC[C@H](C)Oc2ccc(NC(=O)Nc3ccc(C(F)(F)F)cc3)cc2C1=O` is listed as Vif TR-FRET = /; FGF22 binding = i; HNF4A DNA FP = /; rRNA inh HTS = -53; rRNA inh HTS OD600 = -75; rRNA inh HTS RFP = -10; Ecoli growth = /; MLL AF4-AF9 inh = -3.2; ALR inh = /
`CC(=O)NCCc1nc2cc(NC(=O)c3ccccc3)ccc2n1C` is listed as Vif TR-FRET = 8%; FGF22 binding = i; HNF4A DNA FP = -2.7; rRNA inh HTS = 8; rRNA inh HTS OD600 = 0; rRNA inh HTS RFP = -1.7; Ecoli growth = 0.68; MLL AF4-AF9 inh = -0.1; ALR inh = -2
`CC(=O)c1c(C)cc(C)c(CSc2nc(C)cc(=O)[nH]2)c1C` is listed as Vif TR-FRET = -8%; FGF22 binding = /; HNF4A DNA FP = -1.4; rRNA inh HTS = /; rRNA inh HTS OD600 = /; rRNA inh HTS RFP = /; Ecoli growth = 0.68; MLL AF4-AF9 inh = /; ALR inh = 52
